High-throughput results (PubChem BioAssay)
Arbovirus inh – antivirals against arbovirus infection, primary screen, cell-based, full library, 10K replicate subset. arbovirus infection cell-based antiviral screen. inhibition, % at 10 µM. 200,000 tested, 0.37% active;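 active means inhibition from about 30%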;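 further: bluetongue infection of BSR cells; cell survival read as ATP light after 72 h; 0% = infected wells without compound and 100% = uninfected wells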
RecA intein inh – Mtb RecA intein splicing inhibitors, primary screen, biochemical, fluorescence, HTS | Protein RecA (Mycobacterium tuberculosis (strain ATCC 25618 / H37Rv)), P9WHJ3 | cell-free RecA intein splicing | inhibition, %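 (about 9 µM by stock and volumes)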 | 290,000 tested, 0.75% active | AID 2221, 2009; in the data active means inhibition above about 30%; inconclusive means no clear call, values can overlap the other calls;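 further: 0% = vehicle wells and 100% = reference inhibitor control wells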
Target sequence (P9WHJ3 whole entry, looked up): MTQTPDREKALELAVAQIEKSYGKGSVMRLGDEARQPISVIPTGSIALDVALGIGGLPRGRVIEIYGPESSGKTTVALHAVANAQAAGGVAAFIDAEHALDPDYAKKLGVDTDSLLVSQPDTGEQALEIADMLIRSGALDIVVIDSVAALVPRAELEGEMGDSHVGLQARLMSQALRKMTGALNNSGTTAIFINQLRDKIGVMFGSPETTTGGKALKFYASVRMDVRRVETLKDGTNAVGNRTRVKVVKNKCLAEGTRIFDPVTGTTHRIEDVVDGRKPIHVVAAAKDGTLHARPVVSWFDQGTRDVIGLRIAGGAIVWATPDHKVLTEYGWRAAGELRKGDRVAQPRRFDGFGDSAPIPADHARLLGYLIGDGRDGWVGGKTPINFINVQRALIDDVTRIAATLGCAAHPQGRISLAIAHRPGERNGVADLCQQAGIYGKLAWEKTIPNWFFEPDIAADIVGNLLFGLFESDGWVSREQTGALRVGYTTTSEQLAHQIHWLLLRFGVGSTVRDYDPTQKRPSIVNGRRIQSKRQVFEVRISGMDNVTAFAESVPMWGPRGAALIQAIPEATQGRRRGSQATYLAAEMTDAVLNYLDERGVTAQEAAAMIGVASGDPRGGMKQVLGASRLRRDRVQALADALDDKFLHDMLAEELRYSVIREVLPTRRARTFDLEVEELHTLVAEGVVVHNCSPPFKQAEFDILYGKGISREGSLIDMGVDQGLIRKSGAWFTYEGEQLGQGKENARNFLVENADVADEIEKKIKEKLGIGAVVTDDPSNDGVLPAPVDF
Mtb H37Rv – M. tuberculosis H37Rv growth inhibitors, H37Rv strain (AID 1626) | M. tuberculosis H37Rv growth inhibition; higher % means a stronger effect | 220,000 tested, 0.95% active | inhibition, % at 10 µM, or IC50 in µM where a hit was titrated;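 active means confirmed in a dose series; inconclusive means inhibition above 80% but not taken into the dose series; inactive means below 80% or under 30% at every dose of the series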;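 further: bacteria incubated seven days before Alamar blue readout; 0% = bacteria only wells and 100% = bacteria with antibiotic wells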
YopH inh – YopH tyrosine phosphatase inhibitors, primary screen, biochemical, fluorescence Ex485/Em525; YopH tyrosine phosphatase [Yersinia enterocolitica]; inhibition, %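 (about 10 µM by stock and volumes)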; 140,000 tested, 0.16% active;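 active means inhibition of 50% or more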;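 further: controls were vehicle for no effect and minimum signal wells for full effect; inactives centre near -20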
Mtb bLac sens – beta-lactam sensitization of Mtb H37Rv, H37Rv; M. tuberculosis H37Rv growth with meropenem, percent inhibition; hits of this screen are not shown here; inhibition, % at 25 µM; AID 434955, 2010; 330,000 tested, 0.27% active;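 active means about 74% or more and at least 40 points above the plate without the antibiotic, then above 30% in a dose series; inconclusive means first-round hits that could not be retested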;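 further: growth measured after seven days incubation then overnight dye step; 0% = bacteria only wells and 100% = bacteria with antibiotic; twin plates without the antibiotic show which effects depend on it; some results filed as inactive read as strong as hits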
Arbovirus inh repeat – also measured in Arbovirus inh; calls as there; inhibition, %; measured here: 10K subset replicate screen; many hits read low in the repeat;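 first of two repeat runs on a subset; 0% = infected and 100% = uninfected wells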
* = called active by the depositor; ? = inconclusive; · = no result given.

SMILES	Arbovirus inh	RecA intein inh	Mtb H37Rv	YopH inh	Mtb bLac sens	others
Cc1cccc(N(C(=O)c2csnn2)C(C(=O)NCc2ccccc2)c2cccs2)c1 (stereo not given)	·	1.9	·	·	-7
CCOC(=O)n1c(=O)n(Cc2ccccc2Cl)c2ccccc21	2	3.9	10%	-35	-9
COc1ccccc1C(O)(C(=O)NNc1cccc(C)c1)c1ccccc1OC	-3	2.4	77%	-27	75
c1coc(CNc2nc(N3CCCCC3)nc3ccccc23)c1	3	4.7	1.5µM*	-24	99
COCCCNC(=O)c1ccc(Cn2c(=O)[nH]c3ccccc3c2=O)cc1	-4	·	·	-28	-12	Arbovirus inh repeat=-9
CN(C)CCNc1nc2c(c(=O)[nH]c(=O)n2C)n1CC(O)COc1ccc(Cl)cc1Cl (stereo not given)	-3	1.6	1%	-37	-14
O=C(c1cc(Br)c(Br)s1)N1CCOCC1	·	-2.4	·	·	3
Cc1ccc(NC(=O)C2CCCCC2C(=O)O)cc1Cl (stereo not given)	18	-1.6	>100µM*	·	82
O=C(NCc1cccs1)C1CCN(S(=O)(=O)c2ccc3c(c2)OCCO3)CC1	4	-0.8	-11%	-61	-5
C=CCn1nnnc1SCC(=O)Nc1ccccc1C(=O)OC	-1	-0.2	-5%	-10	-5
O=C(CCCCCNC(=O)c1ccccc1)N=Nc1c(O)[nH]c2c(Br)cc(Br)cc12	-4	-0.8	?	·	97
Cc1cccc(NC(=O)Cn2nnc3sc4c(c3c2=O)CC(C)(C)OC4)c1	·	2.5	4%	·	2
CC(=Nc1ccccc1N)c1c(O)n(C)c(=O)n(C)c1=O	·	-1.6	·	·	-6
CC1=C(C(N)=O)C(c2ccc(Cl)cc2)NC(=O)N1 (stereo not given)	2	-0.5	-9%	-42	-10
C/C(=N\NC(=O)c1ccc2ccccc2c1)c1cccs1	·	-1.5	·	·	2
COc1ccc(C(=O)CSc2nc3ccccc3n2CC(=O)NC(C)(C)C)cc1	2	·	-13%	-39	7
NCCCC[C@H]1CNC(=O)C(=O)N1CCC12CC3CC(CC(C3)C1)C2	·	0.2	-5%	·	-3
O=C(Oc1ccc(-c2cn3c(n2)SCC3)cc1)c1ccccc1	-12	3.3	-4%	-23	92
CCn1cc(CNC(=O)C2CCC(=O)N(Cc3ccc(Cl)cc3)C2)cn1 (stereo not given)	·	-0.5	·	·	-8
CNC(=S)NNC(=O)c1ccc(=O)n(Cc2ccc(Cl)cc2Cl)c1	6	-1.8	-6%	·	-9
Cn1cc(Cl)c(C(=O)NNC(=S)NC2CCCCC2)n1	-4	0.6	-5%	-25	-1
COc1ccc(-n2c(SCCN(C)C)nc3ccccc3c2=O)cc1	·	-0.5	0%	·	-5
CC(C)NC(=O)C1c2ccccc2Oc2ccccc21	·	-5.8	·	·	2
CS(=O)(=O)c1ncc(Cl)c(C(=O)Nc2ccc(N3CCOCC3)cc2)n1	5	45*	·	-22	3
Fc1ccc(NC(=S)Nc2cccnc2)c(Cl)c1	3	-1.0	-8%	·	-8
O=C(Nc1ccccc1N1CCOCC1)c1cccc([N+](=O)[O-])c1	1	-9.3	5%	-31	3
CN(C)C(=S)c1ccccc1	·	-0.3	-11%	·	-6
Cc1ccc(NC(=O)CSc2nccc(=O)[nH]2)c(S(=O)(=O)N2CCOCC2)c1	3	-4.6	-4%	-62	-10
CC(C)CNC(=O)c1ccccc1N(Cc1ccccc1)S(C)(=O)=O	·	-0.6	·	·	-4
CCCCN(C)C(=O)c1cc2c(Cl)nc3ccccc3c2s1	·	18	·	·	11
CCOC(=O)C1(Cc2ccc(O)cc2)NC(c2ccccc2F)C2C(=O)N(C)C(=O)C21 (stereo not given)	-1	0.8	-9%	-53	-1
CCc1nn(CCCC(=O)NCc2cc(Br)ccc2OC)c(=O)c2cc3occc3n12	·	-3.6	·	·	4
CC(=C\c1ccccc1)/C=C1/SC(=S)N(CCC(=O)Nc2ccccn2)C1=O	-5	3.4	-14%	·	77
COc1cc(NC(=S)N2CCN(S(=O)(=O)c3ccc(C)cc3)CC2)cc(OC)c1	·	1.2	·	·	-8
O=C(NCC(c1ccco1)N1CCN(c2ccccc2)CC1)C(=O)NC1CCCC1 (stereo not given)	·	-3.6	·	·	-5
CCOC(=O)C1=C(O)C(=O)N(Cc2ccccc2)CC1	-1	2.0	-1%	·	-7
Cc1cc(=O)[nH]c(NN)n1	·	-2.8	-5%	·	3
CS(=O)(=O)N1CCN(Cc2ccc([N+](=O)[O-])cc2)CC1	3	-3.5	12%	·	-6
COc1ccc(-c2cc(C(=O)N3CCN(C(=O)c4ccccc4F)CC3)[nH]n2)cc1	·	-0.2	·	·	-1
FC(F)(F)c1cc(Oc2ccc(Cl)cc2)ncc1-c1nnc(-c2ccc(Cl)cc2)o1	·	-2.7	-8%	·	-1
CCc1cc(C(=O)NC2CCCc3c2cnn3-c2cccc(C)c2C)n(C)n1 (stereo not given)	·	3.1	·	·	?
C/C(CCc1ccccc1)=N\NC(=S)NCCc1ccccc1	·	-0.3	·	·	99
CCOc1nc(NCCC2=CCCCC2)nc(N2CCOCC2)n1	0	0.5	4%	0	1
O=C(O)C1C2C=CC(C2)C1C(=O)OCC1CCCO1 (stereo not given)	6	4.7	-7%	-40	0	Arbovirus inh repeat=7
Cc1cc(C)n(C(=O)Cn2nc(C)c(Br)c2C)n1	·	0.7	·	·	-5
Oc1cccc(C(O)CNCc2ccc(OCc3ccc(Cl)cc3Cl)cc2)c1 (stereo not given)	-29	11	10%	·	-1
COc1ccc(OC)c(C2C3=C(N=C4SCC(=O)N42)c2ccccc2CC3)c1 (stereo not given)	5	6.1	-8%	0	-12
CN(C(=O)COC(=O)CSc1cc(Cl)ccc1Cl)c1c(N)n(Cc2ccccc2)c(=O)[nH]c1=O	·	1.2	·	·	-13
O=C(O)c1cccnc1SCc1ccc([N+](=O)[O-])cc1	·	0.1	·	·	-9
Nc1nc(-c2ccccc2)cn1/N=C/c1ccccc1	·	·	1%	·	-2
Cc1ccccc1CSc1ccc(-c2ccc3c(c2)OCO3)nn1	-43	6.8	0%	-9	1
N/C(=N\OS(=O)(=O)c1cccc([N+](=O)[O-])c1)c1ccncc1	-6	-9.1	-2%	-19	0
COC(=O)[C@@]1(Cc2ccc(OC)cc2)[C@H]2c3cc(C(=O)N4CCCC4)n(CCSCCO)c3C[C@H]2CN1C(=O)c1ccccc1	-7	·	7%	-28	-5
Cc1cccc(NC(=O)CSc2nnc(-c3ccccc3C)o2)c1	0	·	-5%	21	·
Cn1c(O)c(N=NC(=O)Cn2c(C(F)(F)F)nc3ccccc32)c2ccccc21	-3	0.4	2%	-26	7
CCCCSc1nnc(-c2ccccc2NC(C)=O)c(=O)[nH]1	7	-2.2	-7%	·	4
CCC(=O)Nc1cccc(C(=O)N(Cc2ccccc2)Cc2ccccc2)c1	·	5.1	·	·	-2
Cn1c(=O)c2c(ncn2CCCNC2=CC(C)(C)CC(=O)C2)n(C)c1=O	5	-1.2	2%	-3	·
Cc1cc(CN(C)Cc2c(C(=O)N3CCCCCCC3)nc3ccc(Cl)cn23)n[nH]1	-1	0.9	6%	·	-3
Cc1ccc(O)c(C(=O)c2cnc(/N=C(\N)N(C)C)nc2)c1	·	1.7	·	·	-9
New compounds follow
SMILES	Arbovirus inh	RecA intein inh	Mtb H37Rv	YopH inh	Mtb bLac sens	others
Cc1ccc(C)c(-n2[nH]c3c4c(ccc3c2=O)C(=O)c2ccccc2C4=O)c1	-27	-3.4	74%	12	13
COc1ccc2nc(Nc3nc(-c4ccncc4)cs3)sc2c1	1	3.9	16%	·	47
COc1ccc(N2CCN(C(=N)/C(C(C)=O)=C(\C)O)CC2)cc1	1	-4.7	-8%	23	7
CSc1ccc(-c2nc(CN(C)C3CCOC3)c(C)o2)cc1 (stereo not given)	-2	-1.6	8%	·	-4
CSC(=NNC(=O)c1ccc(O)cc1)SC	-7	-1.1	4%	-22	38
CC1Sc2ccc(C(=O)N3CCCC(C(F)(F)F)C3)cc2NC1=O (stereo not given)	·	-1.3	·	·	-9
Cn1cccc1/C=N/N1CCN(c2ccccc2)CC1	-10	-2.6	-3%	·	0
CC(C)NC(=O)C1(c2ccccc2)CCOCC1	3	0.1	-12%	-5	-4
Cc1cccnc1NC(=S)Nc1ccc(Br)cc1Cl	-7	3.2	?	·	98
CCN1C(=O)C(C)S/C1=N\S(=O)(=O)c1ccc(Cl)s1 (stereo not given)	-4	-2.5	-3%	-37	-8
C[C@H]1[C@H]2c3nc4ccccc4n3C[C@H]1ON2C1CCCCC1	·	1.1	·	·	0
COc1ccc(S(=O)(=O)NCC(=O)N(CC(=O)NCc2ccco2)C2CCCC2)cc1	·	6.8	·	·	-3
Cn1ncc(Br)c1NC(=O)CSc1ccc(Cl)cc1	·	1.9	1%	·	-10
O=C(CC1Nc2cccc3cccc(c23)NC1=O)Nc1ccccc1 (stereo not given)	9	-2.3	7%	-12	-3
O=C(COc1ccc(Cl)cc1Cl)Nn1c(=S)[nH]c2ncccc2c1=O	5	0.2	13%	-26	-10
O=C(NC1CCCC1)C(c1ccncc1)N(C(=O)c1csnn1)c1cccc(F)c1 (stereo not given)	·	-4.4	·	·	0
COc1cc(/C=C2\SC(=Nc3ccc(O)cc3)NC2=O)cc(OC)c1OC	·	-4.0	12%	·	-15
Clc1ccc(-c2nc3ccccn3c2CN2CCOCC2)cc1	12	3.4	-4%	-29	-4
O=C(NCCCCCCNC(=O)c1ccccc1O)c1ccccc1O	·	5.5	·	·	3
CC1(C)Cc2c(sc(NC(=O)C(=O)N3CCCC3)c2C(=O)O)CO1	·	-2.6	·	·	?

By substructure: those above containing a nitro group on carbon.
SMILES	Arbovirus inh	RecA intein inh	Mtb H37Rv	YopH inh	Mtb bLac sens	others
O=C(Nc1ccccc1N1CCOCC1)c1cccc([N+](=O)[O-])c1	1	-9.3	5%	-31	3
CS(=O)(=O)N1CCN(Cc2ccc([N+](=O)[O-])cc2)CC1	3	-3.5	12%	·	-6
O=C(O)c1cccnc1SCc1ccc([N+](=O)[O-])cc1	·	0.1	·	·	-9
N/C(=N\OS(=O)(=O)c1cccc([N+](=O)[O-])c1)c1ccncc1	-6	-9.1	-2%	-19	0

(more compounds)
SMILES	Arbovirus inh	RecA intein inh	Mtb H37Rv	YopH inh	Mtb bLac sens	others
CC1CCCN(S(=O)(=O)Cc2ccc(Cl)cc2)C1 (stereo not given)	-2	0.4	2%	-17	-5
COc1ccccc1N1CCN(C(=O)c2cc(C(C)(C)C)oc2C)CC1	·	2.6	7%	·	1
CC(=O)C1=NN(c2ccc(Cl)cc2)C(c2ccc3c(c2)OCO3)N(C(C)=O)N1C (stereo not given)	·	8.7	5%	·	4
C#CCn1cc(C=C2C(=O)c3ccccc3C2=O)c2ccccc21	-16	0.7	1%	51*	·
CCc1ccc(OS(=O)(=O)c2cn(C)c(=O)n(C)c2=O)cc1	19	2.8	7%	·	-4
COc1ccc(NC(=O)c2cc3ccc4c5ccccc5[nH]c4c3cc2O)cc1	·	-3.0	3%	·	-3
Cc1ccc(-c2nnc(COC(=O)c3cccs3)o2)cc1	·	4.0	·	·	80
N#CC1(P(=O)(c2ccccc2)c2ccccc2)CC1	2	2.2	-5%	-1	1
CCOC(=O)C1CCCN(C2CC(=O)N(c3ccc(C)c(C)c3)C2=O)C1 (stereo not given)	-1	-1.2	0%	0	-3
Cc1ccnc(-n2sc3ccccc3c2=O)n1	13	-3.2	·	-13	1
Cc1sc(NC(=O)CN2CCOCC2)c(C(=O)c2ccccc2)c1C	-5	1.7	-9%	-30	-13
CCCCn1c(-c2csc3c2CCCC3)n[nH]c1=S	-3	2.6	0%	-41	-14
CC(C)OCCCNC(=S)N1CCC(C(=O)c2ccc3c(c2)OCCO3)CC1	6	-1.9	-8%	·	-2
CCOc1cc(C2Nc3ccccc3C(=O)N2c2ccccc2OC)ccc1O (stereo not given)	9	-1.4	-4%	4	-7
CC(=O)N1CC(=O)N(Cc2ccccc2)/C(=C/c2ccccc2)C1=O	-1	3.9	2%	·	0
CN(C)S(=O)(=O)c1cccc(NC(=O)CSc2nc3ccccc3[nH]2)c1	7	3.5	4%	·	-7
CCn1nc(C(=O)NCc2ccco2)c(Cl)c1Cl	1	0.2	9%	2	3
O=[N+]([O-])c1cc(Oc2cccnc2)cc([N+](=O)[O-])c1	-16	-1.2	0%	3	3
CN(C(=O)CSc1nnc(CNC(=O)c2ccccc2)o1)c1ccccc1	·	0.4	·	·	-13
CCc1ccc(CN(C)C(=O)c2cc(COc3ccc(OC)cc3Cl)on2)nc1	·	4.7	·	·	2

Only part of the results is shown; the hit share may differ from the screen's.
